Screens deposited in PubChem by National Center for Advancing Translational Sciences (NCATS).
TDP1 cell CPT: DT40-hTDP1 cell growth loss with CPT; chicken DT40 Tdp1-/-;hTDP1 cells + 20 nM CPT, ATP luminescence, 48 h; Potency, µM (series often up to 46.2 µM), inactives show top-dose activity change, negative = growth inhibition, actives largely listed as inhibitors; 12% of 420,000 active; AID 686979; further: nearly all actives have a fitted effect of over 55% in size
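Chicken DT40 Tdp1-/- cells stably complemented with human TDP1 were seeded at 400 cells/well in medium containing 20 nM camptothecin, exposed to pin-transferred compounds, and grown at 37 °C for at least 48 hr. Viability was read as ATP luminescence.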
N370S GC: inhibits or activates N370S mutant glucocerebrosidase; 0.092% of 330,000 active; N370S GC spleen homogenate, 4MU-glucoside fluorescence; P04062; Potency, µM (doses to about 59.4 µM), for the others: at the highest dose activity change, negative = inhibition, actives largely listed as inhibitors;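 further: 0% = full enzyme activity and -100% = no enzyme basal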
An asterisk follows results filed as active; ? = inconclusive; . = not tested or not shown; & = joins results of further samples; [ ] = dose if it differs, or a comment. The call rests on the fitted dose curve; in most records, active means well fitted curve in the direction sought with a large enough effect; inconclusive means small, poorly fitted or top-dose-only effect, or another doubt; inactive means no such curve, though single readings can be large; an effect the other way counts as inactive or inconclusive. Unless noted, on the % scale 0 is the no-effect control and ±100 the full control effect; potency means the concentration at half of the fitted maximal effect.

structure	N370S GC	TDP1 cell CPT
O=C(N/N=C/c1cc(Br)cc([N+](=O)[O-])c1O)c1ccc(NC(=O)c2ccc(F)cc2)cc1	2%	23µM*
O=C(c1ccccc1Cl)N(Cc1ccc(Cl)c(Cl)c1)N1C(=O)CCCC1=O	-1%	-24%
CC(C)(C)C(=O)Nc1cc(S(=O)(=O)Nc2ccc(Cl)cc2)ccc1O	?	1%
CCCOc1ccc(C(O)C(CN2CCOCC2)c2ccccc2)cc1 (stereo not given)	1%	10%
CCO[C@@H]1OC(C(=O)NC2CC2)=C[C@H](c2c[nH]c3ccccc23)[C@H]1CCCO	-7%	0%
CC(C)Cc1nnc(NC(=O)CCC(=O)Nc2ccccc2F)s1	6%	10%
NC(=O)c1nsc(C(=O)N(Cc2ccco2)C(C(=O)NCC2CCCO2)c2ccc(O)cc2)c1N (stereo not given)	-7%	-5%
O=C(NNC1=NCCN1Cc1ccccc1)c1cccc(C(F)(F)F)c1	-11%	-6%
CCc1cc(=O)oc2c(C)c(O)c(CN(C)C)cc12	?	-1%
c1ccc(CCc2nn3c(Cc4ccccc4)nnc3s2)cc1	12%	?
CC(C)C(NC(=O)c1ccccc1F)C(=O)NCc1ccc(F)cc1 (stereo not given)	-3%	-6%
Cc1onc(-c2c(F)cccc2Cl)c1C(=O)Nc1cccc(S(=O)(=O)NCc2ccco2)c1	0%	?
Nc1c(-c2cccc(Cl)c2)cnc2c(-c3ccccc3)cnn12	?	-1%
O=C(NC1CCCCCC1)c1cccc(COCC(F)(F)F)c1	5%	0%
C#Cc1ccc([C@@H]2C=C(C(=O)N3CCN(Cc4ccccc4)CC3)O[C@H](OCC)[C@H]2CCCO)cc1	-21%	?
CC1=C(C(=O)OC(C)C)C(c2ccc(C)o2)NC(=O)N1 (stereo not given)	11%	0%
O=C1COc2cc(ccc2[N+](=O)[O-])Oc2ccc(cc2Cl)C(=O)CCCCO1	-12%	?
O=C(NC1CCCC1)c1cc(COc2ccc3ncccc3c2)on1	-1%	3.7µM*
CC/C(O)=N\S(=O)(=O)c1ccc(N=NN(C)C)cc1	-2%	-12%
Cc1nn(-c2ccccc2)c(C)c1/C=N/NC(=O)c1ccccc1NS(=O)(=O)c1cccs1	-14%	10%
O=C(CCN1C(=O)c2ccccc2C1=O)NCCCn1ccnc1	-2%	8%
Cc1ccc(CN(c2ccc(C(=O)Nc3ccc4c(c3)OCO4)cc2)S(C)(=O)=O)cc1	3%	1%
ClC(Cl)(Cl)c1nc(N/N=C/c2ccncc2)c2ccccc2n1	-5%	-18%
CCOC(=O)Oc1ccc2oc(C)c(C(=O)OCCOC)c2c1	-11%	-9%
O=S(=O)(Nc1ccc(-c2ccc3nncn3n2)cc1)c1ccc(Cl)s1	-5%	6%
Cc1cccc(NS(=O)(=O)c2ccc(Br)s2)n1	3%	1%
Cc1csc(NC(=O)C2CC(=O)N(Cc3ccco3)C2)n1 (stereo not given)	8%	3%
O=C1CN(C(=O)c2cc3ccccc3oc2=O)C(c2ccc(F)cc2)c2cc(Br)ccc2N1 (stereo not given)	4%	13µM*
Cc1cc(C(=O)CS(=O)(=O)c2ccc(F)cc2)cc(C)c1O	-9%	19%
COc1ccc(N2CCN(C(=O)CSc3nnc(-c4ccc5[nH]c(C)c(C)c5c4)o3)CC2)cc1	1%	?
COc1ccc(S(=O)(=O)N(C)c2ccc(C(=O)N3CCCC3)cc2)cc1OC	2%	-23%
CC1CC(C)CN(S(=O)(=O)c2ccc(NC(=O)CN3CCCCCC3)cc2)C1 (stereo not given)	-2%	16µM*
CCN1C(=O)c2ccccc2S(=O)c2ccc(C(=O)NCc3ccc(OC)cc3)cc21 (stereo not given)	-5%	?
CC(C)CCOc1ccc(/C=N/N2C(=O)CSC2=S)cc1	-3%	?
O=C(/C=C/c1cccc(OCc2ccccc2)c1)c1cccnc1	3%	-20%
COCCN(C(=O)COC(=O)c1cccnc1SC)c1c(N)n(Cc2ccccc2)c(=O)[nH]c1=O	3%	-7%
Cc1ccc(C(C)C)c(OCCn2ccnc2C)c1	-1%	16µM*
CC1N=C2c3ccccc3N=C(SCc3cc(=O)n4cc(Cl)ccc4n3)N2C1=O (stereo not given)	-3%	2%
O=C(O)c1ccccc1NS(=O)(=O)c1cccc2nsnc12	-1%	-5%
O=c1c2ccccc2n2c(=S)[nH]nc2n1-c1ccccc1	0%	-1%
CCn1c(=O)c(C(=O)CN(C)CC(=O)Nc2ccccc2Br)c(N)n(Cc2ccccc2)c1=O	-7%	21µM*
COc1ccc(C2=CC(c3cccc(OC)c3)n3nnnc3N2)cc1 (stereo not given)	20%	1%
CN(C)C(=O)C1Cc2ccccc2CN1S(=O)(=O)c1cccs1 (stereo not given)	1%	5%
Brc1cccc(CNCc2cccs2)c1	3%	-40%
Cc1cccc2nc(CSc3nc4[nH]ncc4c(=O)n3-c3cccc(Cl)c3)cc(=O)n12	7%	?
Cc1nc(C(=O)O)nn1-c1ccc([N+](=O)[O-])cc1	-10%	10%
Cc1cc(C)n(-c2cc(N3CCN(S(=O)(=O)c4ccc(Br)cc4)CC3)ccc2[N+](=O)[O-])n1	0%	12µM*
c1ccc2c(c1)N1CCCN=C1N2CCN1CCCCC1	-5%	-26%
CCCN(Cc1nnc(-c2ccccc2Cl)o1)C(=O)c1cc(S(=O)(=O)N2CCOCC2)ccc1F	-7%	?
O=C(CCS(=O)(=O)c1cccc2nsnc12)NC1CCCCCC1	1%[12.8 µM]	7%
COCC(=O)NCc1ccc2c(c1)OCO2	-1%	-4%
COc1ccc(N(C)C(=O)c2cn(CC(C)C)c(=O)c3cc(OC)c(OC)cc23)cc1	-10%	-5%
Cc1cc(C)cc(OCC(=O)NNC(=O)c2cc(C)[nH]n2)c1	3%	-7%
COC(=O)c1ccc(OCC(O)CN2C(=O)c3ccccc3S2(=O)=O)cc1 (stereo not given)	5%	-7%
Cc1cc(C)nc(N2CCN(C(=O)CCC(=O)Nc3nnc(CC(C)C)s3)CC2)n1	4%	-3%
COc1cc([N+](=O)[O-])cc(/C=N/N(CCC#N)C(C)=O)c1O	-8%	-25%
C=C(C)CSc1nnc(CCCCCNC(=O)OC(C)(C)C)o1	0%	-29%
C=CCOc1ccc(CNc2ccc(NC(=O)CC(C)C)cc2)cc1OC	3%	-29%
CC1=NN(C(N)=S)C(=O)C1N=Nc1ccccc1C (stereo not given)	17%	1.6µM*
O=C1CN(C(=O)COC(=O)c2ccc(Cl)cc2)c2ccccc2N1	-6%	19%

The list goes on:
structure	N370S GC	TDP1 cell CPT
CSc1ccc(S(=O)(=O)NCCSc2ccccn2)cc1	2%	-16%
O=C(c1ccc(F)cc1F)N1CCCC(c2nc(-c3cccs3)no2)C1 (stereo not given)	-7%	?
O=C(O)CC1=C(c2ccc(F)cc2)CCC1=O	-7%	-10%
Cc1ccc(S(=O)(=O)CCNC(=O)Cc2ccccc2)cc1	2%	21µM*
CCn1c(O)c(N=NC(=O)C2C(=O)NCC2c2ccccc2)c2ccccc21 (stereo not given)	-4%	-16%
O=C(NCc1ccccc1)C1CCC(CNc2c(N3CCCCC3)c(=O)c2=O)CC1 (stereo not given)	7%	-1%
Cc1ccc(CNC(=O)C2CC(c3ccccc3[N+](=O)[O-])=NO2)o1 (stereo not given)	5%	-14%
COc1ccccc1C(=O)N(C1=NC(C)CS1)c1ccc(Cl)cc1 (stereo not given)	-9%	-29%
Cc1ccccc1N1CCN(C2CCCN(C(=O)CCn3cnnn3)C2)CC1 (stereo not given)	-3%	1%
C[C@@H](CN1C2=NC[C@H](C)N2C[C@H]1Cc1ccc(O)cc1)NC(=O)CCC1CCCCC1	-27%	12µM*
O=C(c1ccccc1F)N1CCN(c2ccc([N+](=O)[O-])c(NCC3CCCO3)c2)CC1 (stereo not given)	-6%	?
CCCCN(C(=O)c1ccc(-n2nc(C)cc2C)cc1)c1c(N)n(CCC)c(=O)[nH]c1=O	-2%	-4%
O=C(COC(=O)CNS(=O)(=O)c1cc(C(F)(F)F)ccc1Cl)NC1CC1	.	2%
CC(=O)Nc1ccc(S(=O)(=O)NNc2cccc(C)c2)cc1	-6%	23µM*
COCCn1cnc2cc(C)c(C)cc21	-10%	-21%
COC(=O)c1cc(OC)c(OC)cc1NC(=S)N1CCOCC1	-1%	-24%
CCOC(=O)C1CCN(c2ccc([N+](=O)[O-])cc2)CC1	-4%	9%
COCCn1c(=S)[nH]c2cc(C(=O)NCCCN3CCOCC3)ccc2c1=O	-28%	3%
Cc1ccc(-c2oc3ccccc3c(=O)c2OCC(=O)O)cc1	-5%	3%
CCCCCNC(=O)C(C)Sc1ccc(Cl)cc1 (stereo not given)	3%	-5%
CC(NC(N)=O)C12CC3CC(CC(C3)C1)C2 (stereo not given)	-1%	-26%
O=C(CCN1C(=O)C2CCCCC2C1=O)Nc1nc(-c2ccc(F)c(F)c2)cs1 (stereo not given)	-5%	?
CC(C)C(c1nnnn1Cc1ccc2c(c1)OCO2)N1CCN(c2ccccc2)CC1 (stereo not given)	7%	-15%
c1ccc(-c2nnc3sc(CN4CCC5(CC4)OCCO5)cn23)cc1	-7%	-12%
O=C(CN1CCN(CC(=O)Nc2cccc(F)c2)CC1)Nc1ccc(-c2ccccc2)cc1	-4%	-29%
CCn1c(SCc2ccccc2)nnc1-c1cccs1	9%	18µM*
O=C(CN1C(=O)/C(=C/c2ccccc2)SC1=S)NC1CCS(=O)(=O)C1 (stereo not given)	-10%	-4%
COc1ccc(/C=C/C(=O)NCC(=O)N/N=C/c2cc(Br)ccc2OCc2ccccc2)cc1	-5%	?
CC12CCC(C(=O)N(NC(=O)c3ccccc3O)C1=O)C2(C)C (stereo not given)	-11%	21µM*
CCN(CC(=O)Nc1ccc(NC(C)=O)cc1)C(=O)c1cc(CN2C(=O)c3ccccc3C2=O)ccc1OC	1%	13%
CCc1nnc(NS(=O)(=O)c2ccc(NC(=O)c3ccc(Cl)cc3)cc2)s1	1%	-4%
Fc1ccc(-c2nnc3sc(C4COc5ccccc5O4)nn23)cc1 (stereo not given)	22%	?
O=c1c(-c2cccc3ccccc23)[n+]([O-])c2ccccc2n1O	5%	-12%
CC1CCN(S(=O)(=O)c2ccc(N=NC3=C(O)CC(C)(C)CC3=O)cc2)CC1	9%	-29%
CCOC(=O)c1cc(-c2ccco2)nc2c1c(C)nn2-c1ccccc1	9%	-15%
CCOC(=O)C1CCN(S(=O)(=O)c2csc(C(N)=O)c2)CC1	0%	3%&-6%
Cc1[nH]nc2c1C(c1ccccc1F)CC(=O)N2 (stereo not given)	4%	-22%
COCCNC(=S)N1CCN(c2ccc(Cl)cc2)CC1	-7%	-26%
Cc1ccc(SC(C)c2nc(-c3cccnc3)no2)cc1 (stereo not given)	23%	-26%

These rows are one share of the data; most or all hits stand in other tables.
